Rce1 inhib – yeast Ras-converting enzyme inhibition; AID 2563; 290,000 compounds, 0.27% hits; Q03530; calls only; yeast membranes, quenched prenylated peptide cleavage fluorescence;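 active = fall in fluorescence gain of 50% or more versus controls, with final raw signal at or below 3038400; inconclusive = same 50% fall but final raw signal above 3038400; inactive = fall in fluorescence gain under 50%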;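 also: plate controls were neutral control wells for no effect and wells lacking membranes for full effect; tested at 10 µM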
UUG fidelity – yeast start codon fidelity modulation | activity score, % at 18.7 µM | 350,000 compounds, 0.13% hits | S. cerevisiae UUG-firefly luciferase reporter, luminescence/redox ratio;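 active = replicate mean at a twofold rise or more, about +100% in these data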;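 also: firefly luciferase made from a UUG start codon reports start codon fidelity; reporter light over untreated wells divided by growth signal over untreated wells; some hits fall short of that in this replicate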
CSC inhib – cancer stem cell inhibition. AID 2717. inhibition, % at 7.5 µM. 300,000 compounds, 1.1% hits. cancer stem cell-like cells viability, luminescence;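 active = mean at 75% or more and at least half the replicates too; inconclusive = mean and replicates disagree; tested in HMLE shEcad cells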;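 also: 0% = median of negative and 100% = median of positive control wells; the first replicate is given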
HIV Env fusion – blocks HIV Env-driven cell-cell fusion; AID 651610; inhibition, % at 12.3 µM; HeLa-JRFL Env/CEM21 cell fusion, luciferase; 360,000 compounds, 1.1% hits;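 active = mean replicate inhibition score of at least 50 and every replicate individually at or above 50; inconclusive = only one of the two criteria met; inactive = mean below 50 and not all replicates reaching 50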;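 also: 0% = plate neutral controls and 100% = maraviroc near 300 nM; one replicate is shown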
PABP FP inh – PABP-poly(A) binding inhibition; PABP-poly(A) RNA binding, fluorescence polarization; P11940; 290,000 compounds, 1% hits; inhibition, % at 35 µM;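 active = 50% or more with normal probe brightness, or confirmed in later tests; inconclusive = above 50% with abnormal brightness, or retests that disagree; inactive = below 50% or failed in later tests; about a fifth of its hits are not listed in these tables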;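 also: calls also rest on retests at 20 µM and on dose response follow-up; controls were probe without protein and protein plus probe with vehicle; some compounds called inactive have numbers as strong as hits; many hits fall short of the cut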
Target sequence (P11940 whole entry, looked up): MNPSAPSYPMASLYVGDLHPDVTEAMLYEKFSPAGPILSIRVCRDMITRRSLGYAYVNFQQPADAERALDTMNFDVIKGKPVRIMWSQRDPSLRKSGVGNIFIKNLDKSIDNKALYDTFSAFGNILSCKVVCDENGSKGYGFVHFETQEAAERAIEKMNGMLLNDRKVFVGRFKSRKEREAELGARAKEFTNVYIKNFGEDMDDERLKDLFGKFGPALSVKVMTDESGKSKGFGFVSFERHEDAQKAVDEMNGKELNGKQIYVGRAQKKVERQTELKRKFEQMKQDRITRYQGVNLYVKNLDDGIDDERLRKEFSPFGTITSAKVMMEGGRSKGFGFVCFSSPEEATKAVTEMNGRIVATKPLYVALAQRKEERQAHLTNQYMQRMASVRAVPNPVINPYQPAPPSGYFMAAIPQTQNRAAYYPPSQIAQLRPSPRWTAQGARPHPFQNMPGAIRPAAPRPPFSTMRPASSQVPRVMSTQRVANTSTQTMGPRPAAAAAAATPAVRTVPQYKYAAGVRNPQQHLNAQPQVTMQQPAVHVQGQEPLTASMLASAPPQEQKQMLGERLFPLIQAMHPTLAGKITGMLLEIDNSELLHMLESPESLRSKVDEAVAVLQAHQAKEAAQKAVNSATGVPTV
MT1-MMP act inh – MT1-MMP (human) activation inhibition; P50281; HT1080 RFP-PRO-GFP cells, GFP/RFP ratio fluorescence, overnight; percent of plate control window, DMSO zero; GFP/RFP ratio change, % at 20 µM; 360,000 compounds, 0.061% hits;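 active = GFP/RFP ratio change of at least 30% with cell ATP level not reduced by more than half and red fluorescence within 50% of control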; also: strong numbers were not always called active
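Test system: HT1080 cells expressing an RFP-PRO-GFP fluorescent reporter construct / Compound dosing: single-point 20 µM compound, 1% DMSO / Schedule: cells overnight before dosing, compound overnight, 37 °C, 5% CO2 / Evaluation: GFP/RFP fluorescence ratio / Control set: DMSO and RFP-L50D-GFP cell wells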
eIF4H inh – inhibitors of RNA binding by human eIF4H; Q15056; eIF4H fluorescence polarization binding assay; inhibition, % at 35 µM; 290,000 compounds, 0.94% hits;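 active = 50% or more with normal probe brightness, or confirmed in later tests; inconclusive = above 50% with abnormal brightness, or retests that disagree; inactive = below 50% or failed in later tests; about a fifth of its hits are not listed in these tables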;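 also: calls also rest on retests at 20 µM and on dose response follow-up; 0% = protein and probe with vehicle and 100% = probe without protein; strong numbers were not always called active; many hits fall short of the cut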
eIF4H inh retest – further read-out of eIF4H inh, marked with its call; inhibition, %; compound at 20 µM; confirmation average;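 mean of two retest wells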
PABP FP inh retest – also measured in PABP FP inh; calls as there; inhibition, %; compound at 20 µM; confirmation repeats;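 mean of two retest wells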
MT1-MMP act inh RFP – recorded beside MT1-MMP act inh, whose call it bears; RFP signal change, %; measured here: RFP expression control read;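 0 = vehicle wells; hits needed this value within 50% of zero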
The depositor's hits bear a star; i = inactive; u = inconclusive; x = no result given; + = active, no number.

SMILES	Rce1 inhib	UUG fidelity	CSC inhib	HIV Env fusion	PABP FP inh	MT1-MMP act inh	MT1-MMP act inh RFP	eIF4H inh	others
Cc1ccccc1NC(=O)CSc1nc(N2CCCCC2)nc(N2CCCCC2)n1	i	3	0	-13	-9	0	2	1
CCOc1ccc(CCNC(=O)COC(=O)c2cc(OC)c(OC)c(OC)c2)cc1OCC	i	x	15	-11	6	x	x	3
O=C(Nc1ccccc1OC(F)F)c1ccc(-n2cncn2)c([N+](=O)[O-])c1	i	-20	x	-165	x	4	-2	x
COc1cc(NC(=O)c2cc3sccc3n2C)cc(OC)c1	i	-20	-11	-32	5	2	-4	-2
CCC(C)[C@H](N)c1nnc(SCc2cccc(F)c2)o1 (stereo partly specified)	i	7	-7	x	20	0	-1	-2
N#Cc1c(NC(=O)c2ccccc2)sc2c1CCC2	i	-20	42	i	1	-14	-15	10
COc1ccccc1N(C)S(=O)(=O)c1ccc(C(=O)Nc2cc(OC)c(OC)c(OC)c2)cc1	x	-8	x	11	x	3	-8	x
COc1cc(C(=O)COC(=O)C2CC2(Cl)Cl)cc(OC)c1OC (stereo unspecified)	x	-25	-6	3	x	2	3	x
O=C(CN1CCN(S(=O)(=O)c2ccc(Br)cc2)CC1)Nc1ccc(F)cc1	i	-7	-5	x	0	-2	-5	-16
O=C(NCC(c1ccco1)N1CCc2ccccc21)C(=O)Nc1ccccc1F (stereo unspecified)	i	-2	0	17	x	5	-3	x
COc1cc(C)ccc1OCc1cc(C(=O)N2CCCCCC2)no1	i	-12	x	-8	1	0	3	5
CN(c1ccc(OCC(=O)Nc2cc(Cl)ccc2C(=O)O)cc1)S(=O)(=O)c1ccc(F)cc1	x	-3	19	-3	x	-3	3	x
Cc1cc(C)c2nc(-c3ccccn3)cc(C(=O)Nn3cnnc3)c2c1	i	x	-14	-8	11	-5	1	28
C[C@H](NC(=O)c1[nH]cnc1C(=O)N[C@H](C)c1ccccc1)c1ccccc1	x	9	-13	20	x	3	-4	x
COc1cc(C(=O)ONC(=O)c2ccc(OC(F)F)cc2)cc(OC)c1OC	i	-3	10	8	-4	2	5	-8
O=C(C[C@@H]1C[C@@H]2c3cc(NC(=O)C4CCOCC4)ccc3O[C@@H]2[C@H](CO)O1)NCc1ccccn1	x	-10	x	4	x	-1	5	x
COc1ccc(-c2cc(C#N)nc(NN)n2)cc1	i	-12	3	15	8	2	1	5
CC(C)Oc1ccc(C(=O)OC(C)C(=O)Nc2nc(-c3cccc([N+](=O)[O-])c3)cs2)cc1 (stereo unspecified)	i	x	8	9	-6	-13	-15	-3
O=C(Nc1nnc(S(=O)(=O)N2CCCCCC2)s1)c1ccc(Cl)cc1	i	-21	23	7	7	6	-15	-10
Cc1ccc2c(CC(=O)OC(C)C(=O)NCc3ccc4c(c3)OCO4)coc2c1 (stereo unspecified)	i	-8	-9	-39	-13	-1	3	-8
Cc1cc(Nc2ccccc2N2CCOCC2)n2ncnc2n1	i	-3	-9	-149	-9	6	4	0
Cc1cc(C(C)(C)C)oc1C(=O)N1CCN(C(=O)c2oc(C(C)(C)C)cc2C)CC1	x	-16	x	x	-7	-5	-8	-9
O=C(CCCSc1nc2ccccc2[nH]1)Nc1nnc(C2CC2)s1	i	-14	x	11	-10	1	0	7
COc1ccc(C2c3[nH]c4ccccc4c3CCN2C(=O)c2ccc(=O)n(C)n2)c(F)c1 (stereo unspecified)	i	x	3	-18	3	0	-2	-6
O=[N+]([O-])c1ccc(CN2CCN(Cc3c[nH]c4ccccc34)CC2)cc1	i	x	-16	10	-2	1	3	4
CN1CCN(c2nc3c(c(=O)[nH]c(=O)n3C)n2CCCSc2ncccn2)CC1	i	-1	-15	-17	-2	1	-3	-2
CCOC(=O)C(=O)NC(C)c1ccccc1 (stereo unspecified)	i	x	1	12	16	1	8	27
N=c1n(CCCOc2ccccc2Cl)c2ccccc2n1CC(N)=O	i	x	-5	10	8	-3	-1	-2
O=C(NCCN1CCCC1)c1ccc2c(c1)N(Cc1ccccc1)C(=O)c1ccccc1S2(=O)=O	i	7	x	-25	-3	-2	6	-10
CCOC(=O)N1CCC(NC(=O)c2oc3c(C)c(C)ccc3c2C)CC1	i	0	-13	3	0	-1	2	6
CC1(C(=O)NCCC#N)CCN1C(=O)c1ccccc1CCc1ccccc1 (stereo unspecified)	x	-4	x	4	x	1	4	x
COc1ccc(N2CCN(C(=O)COC(=O)Cc3ccc(F)cc3)CC2)cc1	i	-14	-12	x	x	1	5	x
COc1ccc(S(=O)(=O)n2ccnc2C)c(C)c1C	i	-12	-9	-12	-4	3	6	2
O=C(O)c1ccc(OS(=O)(=O)c2cccc(C(F)(F)F)c2)cc1	x	-9	x	0	x	0	2	x
COC(=O)/C=C1\NCCNC1=O	i	x	-6	-7	-13	1	1	-3
CCCCCN(C(=O)CCC(=O)OCC(=O)N(C)Cc1ccccc1C)c1c(N)n(CCCC)c(=O)[nH]c1=O	i	-8	-7	41	x	1	1	x
O=C(Cc1ccc(F)cc1)NCCS(=O)(=O)N1CCN(c2ccccc2)CC1	i	-1	-6	-4	x	-4	-3	x
Cc1ccc(S(=O)(=O)N2CCC(C(=O)Nc3ccccc3N3CCCC3)CC2)c(C)c1	i	x	-11	x	x	-1	-6	x
CC(C)C(c1nnnn1Cc1ccccc1)N1CCC(C(N)=O)CC1 (stereo unspecified)	i	-14	-2	x	-8	-3	0	2
CN(C)CCSc1nc(N)c2c3c(sc2n1)COC(C)(C)C3	i	-8	x	x	-3	10	3	0
COC(=O)c1ccccc1C(=O)N(c1ccccc1)c1ccccc1	i	x	-4	20	x	-1	-2	x
COC(=O)CSc1nnc(-c2ccco2)n1-c1ccc(C)cc1	i	-17	-8	-22	-6	2	-1	1
Cc1cc(C)n2c3c(c(C#N)c2n1)CC(C)(C)OC3	x	-11	-9	x	-5	-1	5	-10
CCOC(=O)C(NC(C)=O)(Nc1ccc(S(=O)(=O)Nc2cc(C)nc(C)n2)cc1)C(F)(F)F (stereo unspecified)	i	11	-14	-62	-5	-1	-4	-4
COc1ccc(NC(=O)C2OC3OC(C)(C)OC3C3OC(C)(C)OC23)cc1 (stereo unspecified)	i	1	-5	-83	6	-1	-2	-6
NC(=O)c1nsc(C(=O)N(CC(=O)NCc2ccc3c(c2)OCO3)C2CCCCC2)c1N	i	7	-16	x	-6	2	0	2
CCOC(=O)Cc1csc(NC(=O)CCCc2ccccc2)n1	i	-7	6	-14	3	0	0	-3
COc1ccccc1C1OCC(C)([N+](=O)[O-])CO1 (stereo unspecified)	x	-13	x	-2	x	-4	-1	x
NC(=O)CC(NC(=O)Cc1cccc2ccccc12)c1ccc(NC2CCC2)c([N+](=O)[O-])c1 (stereo unspecified)	i	-13	13	-6	5	4	1	-2
COc1cc(OC)cc(C(=O)NNC(=O)c2cc(=O)[nH]c3ccccc23)c1	i	x	4	-6	x	6	4	x
Cc1c(NC(=O)/C(C#N)=C/c2ccc(-c3ccc(Cl)cc3)o2)c(=O)n(-c2ccccc2)n1C	i	x	16	-35	16	0	-18	2
CCN(C(=O)COC(=O)CSc1cc(C)c2ccccc2n1)c1ccccc1	i	-12	-2	23	x	0	2	x
COc1ccc(C(=O)C(OC(=O)CNC(=O)c2ccco2)c2ccccc2)cc1 (stereo unspecified)	i	-17	-17	1	-7	-2	0	2
Clc1ccccc1-c1nc2ccccc2c2nncn12	i	-20	-19	-26	-2	4	3	-1
C/C(=N\NC(=S)NCc1ccccc1)c1ccc(Cl)s1	i	-8	10	-14	0	-1	0	9
COc1cccc(NC(=O)c2cc(CN3C(=O)c4ccccc4C3=O)ccc2OC)c1	i	-14	4	x	20	0	1	-2
O=C(N/N=C/c1ccc[nH]1)c1ccc(COc2cccc3cccnc23)cc1	i	-23	100*	71*	-6	-30	-34	18
Cc1nc2ccccc2c(=O)[nH]1	i	-10	-5	-69	-13	-1	2	-6
O=C(CCn1c(=O)c2ccccc2n(CC(=O)NC2CCCC2)c1=O)NCc1ccco1	x	-1	3	-44	6	-3	1	3
O=C(NC1CC1)c1ccc2nc([C@@H]3O[C@H](CO)[C@H](O)[C@H](O)[C@H]3O)[nH]c2c1	x	-8	x	-1	x	2	2	x
Other records follow:
SMILES	Rce1 inhib	UUG fidelity	CSC inhib	HIV Env fusion	PABP FP inh	MT1-MMP act inh	MT1-MMP act inh RFP	eIF4H inh	others
Cc1nnc2c(Oc3ccccc3)nc3ccccc3n12	i	x	-14	x	7	2	6	2
N#Cc1c(NC(=O)CSc2nnc(-c3ccco3)n2-c2ccccc2)sc2c1CCC2	i	-16	0	x	8	-4	-2	49
Clc1ccccc1Nc1ncnc2c1nnn2Cc1ccccc1	i	x	8	x	3	5	-4	-4
C=CCc1ccccc1OCC(O)CN1C(=O)c2ccccc2C1=O (stereo unspecified)	i	-22	-17	3	0	2	0	-6
Oc1ccc(CNc2ccc(F)cc2)c2cccnc12	i	-21	27	u	-2	-3	4	15
CC(CN1CCC(n2nccc2NC(=O)C2CCCC2)CC1)c1ccccc1 (stereo unspecified)	i	-10	-11	2	4	-4	2	0
CCOc1ccc(C(C)=O)cc1CSc1nnc(N)s1	i	x	10	-3	24	-1	-3	0
Cc1ccc(SCC(=O)NNC(=O)c2ccc(S(C)(=O)=O)cc2)cc1	i	-10	-2	5	-8	2	1	0
Clc1ccc(-c2nc3ncccn3c2Nc2ccc3c(c2)OCO3)cc1	i	-22	-3	-66	54*	5	-4	61*
O=C1CN(S(=O)(=O)c2ccc([N+](=O)[O-])cc2)CC(=O)N1	+	-14	-4	-2	6	-2	0	0
COc1ccc(Cl)cc1NC(=O)C1CC(=O)N(c2ccc(F)cc2)C1 (stereo unspecified)	i	-8	2	x	13	4	8	-9
Cc1ccc(/C=C/C(=O)OCC(=O)Nc2cccnc2Cl)cc1	x	-5	-2	x	x	2	5	x
Cc1ccc(OCc2nnc(SCC(=O)N3c4ccccc4Sc4ccc(Cl)cc43)o2)cc1	i	-10	x	12	2	-3	-4	-3
COc1cccc(C2C(C(=O)/C=C/c3ccco3)=C(O)C(=O)N2CCN2CCOCC2)c1 (stereo unspecified)	i	-11	x	11	-12	-8	7	88	eIF4H inh retest=-1;PABP FP inh retest=0
O=C(CSc1nc(-c2ccco2)cc(C(F)(F)F)n1)Nc1ccc2c(c1)OCO2	i	-14	46	x	3	-16	-20	11
Cc1sc2nc3c(SC(C)C(=O)O)cc(C(=O)c4ccccc4O)cn3c(=O)c2c1C (stereo unspecified)	i	x	9	-7	16	0	7	11
COc1ccc(NS(=O)(=O)c2ccc(OC)c(OC)c2)cc1OC	x	4	-13	7	-8	-1	-7	5
COCCNC(=O)CSc1nnc(-c2ccccc2F)n1Cc1ccccc1	i	x	-15	-1	0	0	-2	-6
COc1cccc(-c2nnc(NC(=O)C3CCCCC3)o2)c1	i	-14	-8	-17	0	4	-1	-3
O=c1oc2ccccc2c(O)c1Sc1ccc(Cl)cc1	i	-21	-1	13	x	-2	2	x

3 compounds drawn at random from the list so far, as already listed:
SMILES	Rce1 inhib	UUG fidelity	CSC inhib	HIV Env fusion	PABP FP inh	MT1-MMP act inh	MT1-MMP act inh RFP	eIF4H inh	others
COc1cccc(-c2nnc(NC(=O)C3CCCCC3)o2)c1	i	-14	-8	-17	0	4	-1	-3
Cc1sc2nc3c(SC(C)C(=O)O)cc(C(=O)c4ccccc4O)cn3c(=O)c2c1C (stereo unspecified)	i	x	9	-7	16	0	7	11
O=C(CSc1nc(-c2ccco2)cc(C(F)(F)F)n1)Nc1ccc2c(c1)OCO2	i	-14	46	x	3	-16	-20	11

Compound activity as filed in PubChem.
